Screening results as filed in PubChem.
PrP 5UTR inh: inhibition of PrP 5' UTR reporter expression. AID 488862. cell-based PrP 5' UTR mRNA reporter, plate reader. 340,000 tested, 0.35% active. inhibition, % (no concentration beside the values);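 active = every replicate at 50% or more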;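 also: 0 = median of the neutral control wells; tested in H4 reporter cells; numbers are from one replicate; inactives centre near -14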
Autofluor counter: compound fluorescence in toxin protease inhibitor counterscreen; compound autofluorescence counterscreen, microsphere flow cytometry; active compounds read high; fluorescence intensity (test concentration not listed); 360,000 tested, 3.1% active; AID 624483;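 active = at least 3 SD above the mean of all compounds, about 16000 in these data; inconclusive = too few beads counted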;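 also: 100 nL of 1 mM stock went into each well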
Mtb hypoxia inh: inhibitors of hypoxia-regulated fluorescent reporter in Mycobacterium tuberculosis | M. tuberculosis hypoxia-regulated fluorescent reporter, fluorescence | 300,000 tested, 0.1% active | fluorescence inhibition, % (no concentration beside the values);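 active = 35 to 45% if threefold the growth effect, above 45% if 1.5-fold the growth effect; inactive = the rest, general growth blockers included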;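 also: wells of about 50 µL received 100 nL stock; 0% = vehicle wells and 100% = reference inhibitor wells; whole bacteria with a GFP reporter of the hypoxia response; strong numbers were not always called active; many hits fall short of the cut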
Sa ugtP lethal: compounds lethal to S. aureus RN4220 ugtP deletion mutant | OD600 growth, 16 h; some inactives read as strong as hits | growth inhibition, % (test concentration not listed) | 330,000 tested, 0.54% active | AID 1259309;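 active = z-score under -3 and OD600 up to 0.15 on both plates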;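 also: plate controls were untreated wells for no effect and antibiotic for full effect; wells of about 80 µL received 100 nL stock; the first replicate is given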
BJeLR viability: BJeLR cell viability loss. BJeLR (HRASV12) viability, CellTiter-Glo ATP luminescence, 48 h; reference of the scale not given here. inhibition, % (no concentration beside the values). 300,000 tested, 0.17% active;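 active = replicate mean above 50%; inconclusive = above 50% but judged a plate artefact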;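 also: 50 nL library stock added to about 25 µL; numbers are from one replicate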
Sa RN4220 lethal: S. aureus RN4220 growth inhibition; OD600, 16 h; inhibition, % (test concentration not listed); 330,000 tested, 0.33% active;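 active = z-score of -3 or lower and OD600 up to 0.18 on both plates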;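 also: plate controls were untreated cells for no effect and reference antibiotic for full effect; stock transfer was 100 nL into about 80 µL; one replicate is shown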
Mtb hypoxia inh growth: recorded beside Mtb hypoxia inh, whose call it bears; growth inhibition, %; measured here: M. tuberculosis growth (absorbance);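 0% = vehicle and 100% = reference antibiotic; read after six days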
* = called active by the depositor; ? = inconclusive; . = not tested or not shown.

SMILES	PrP 5UTR inh	Autofluor counter	Mtb hypoxia inh	Mtb hypoxia inh growth	Sa ugtP lethal	BJeLR viability	Sa RN4220 lethal
CC(Cc1ccccc1)NC(=O)CN1CCCC1=O (configuration not stated)	-8	1972	-5	10	9	13	-1.7
Cc1cc(C)cc(Nc2ccc(C(=O)O)cc2N)c1	-22	2879	4	-20	-4	7	7.9
CCN(CC)S(=O)(=O)c1ccc(C)c(NC(=O)COC(=O)[C@@H]2CCCN2C(=O)c2cccs2)c1	-11	4427	14	1	3	6	5.7
CCOC(=O)N1CCN(C(=O)CCc2cc(OC)c(OC)c(OC)c2)CC1	-17	4485	7	0	5	2	0.8
CCCCN(C(=O)CCCc1nc2ccccc2s1)c1c(N)n(CCCC)c(=O)[nH]c1=O	-6	5487	1	18	1	-13	1.7
Fc1ccccc1CSc1nnnn1-c1ccc2c(c1)OCO2	-24	3192	3	5	-5	-8	-1.4
O=C(NC1=NCCS1)c1cc(-c2ccc(-c3ccccc3)cc2)nc2ccccc12	-89	2247	.	.	.	-5	.
COc1ccc(-c2nnc(SCC(=O)N3CCOCC3)o2)cc1OC	-3	6112	.	.	-4	-3	4.3
O=C(Nc1nc2ccccc2s1)C1=NN(c2ccccc2)C(=O)CC1	-3	2621	-9	-6	-13	7	9.7
COc1ccc(C(CC(=O)c2ccccc2)C2CCCCC2=O)cc1 (configuration not stated)	-25	10809	3	7	23	3	2.0
CCOc1cccc(C(=O)N/N=C/c2coc3ccccc3c2=O)c1	-8	5367	.	.	.	-5	.
COc1ccc(NC(=O)COC(=O)c2ccc(NS(=O)(=O)/C=C/c3ccccc3)cc2)cc1	2	2410	9	0	-2	-6	2.4
Cc1cc(C)n2nc(C(=O)N3CCCC(Nc4ccc(F)c(F)c4)C3)cc2n1 (configuration not stated)	-6	5682	2	6	-1	-8	6.5
Cc1cccc(NC(=O)c2cc(NC(=O)c3ccco3)ccc2N2CCCCC2)c1	-16	11111	6	3	-6	0	5.9
Cc1cccc(NC(=O)Nc2ccccc2[N+](=O)[O-])n1	-30	3870	2	2	-5	6	0.2
CC(=O)c1sc(NN=Cc2ccc(C)cc2)nc1C	.	.	.	.	0	.	1.4
C/C(N)=C(/C#N)C(=O)COC(=O)c1ccc(C)c(S(=O)(=O)N2CCCCC2)c1	3	3287	7	0	10	1	2.2
CC1(C)CC(NC(=O)C(=O)NCCc2ccc(Cl)cc2)CC(C)(C)N1	-26	4082	9	8	-3	3	3.4
O=C(NC1CCCCC1)c1cc2c(cc1Cl)N1CCCCCC1=NS2(=O)=O	-12	6784	2	9	2	.	-0.2
C=CCSc1nc(C)cc2c1C(=O)OC2	-12	4996	13	3	4	-12	3.5
CC(C)CC(=O)Nc1nnc(SCC(=O)NC2CCCCC2)s1	-20	5131	-5	-1	7	-5	2.5
Cc1cccc(NC(=O)c2ccc(C)c(S(=O)(=O)N3CCOCC3)c2)n1	-20	.	1	13	3	.	6.7
O=C(c1cccnc1)N1CCN(S(=O)(=O)c2cccc(Cl)c2)CC1	1	5692	4	4	7	6	1.7
O=C(NCCc1ccccn1)c1ccc(NS(=O)(=O)c2ccc(F)cc2)cc1	-1	2068	-2	-4	5	-2	0.1
COc1ccccc1NC(=O)CSc1nnc(-c2ccco2)n1N	-10	4144	-1	-8	5	-2	2.4
(continued)
SMILES	PrP 5UTR inh	Autofluor counter	Mtb hypoxia inh	Mtb hypoxia inh growth	Sa ugtP lethal	BJeLR viability	Sa RN4220 lethal
N#CC1=C(S)N(c2ccccc2)C(c2ccc(-c3ccc(Cl)c(Cl)c3)o2)NC1=O (configuration not stated)	-14	3712	.	.	.	9	.
Cc1cccc(C)c1NC(=O)/C(C#N)=C/c1ccc(-c2ccc(C(=O)O)cc2)o1	-46	3817	15	10	7	-12	6.7
CCOC(=S)SCC(=O)N1CCc2cc(OC)ccc2C1C1C(=O)CCCC1=O (configuration not stated)	4	2428	15	0	4	-1	1.0
COc1ccc(C(=O)C2C(c3ccc(-c4ccccc4[N+](=O)[O-])o3)NC(=O)NC2(O)C(F)(F)F)cc1 (configuration not stated)	-18	2038	7	5	-9	-7	5.1
CCOc1ccc(S(=O)(=O)N2CCCCC2)cc1NC(=O)c1cccnc1OCC	16	?	-7	0	-2	.	9.4
CS(=O)(=O)NN1C(=O)c2ccccc2NC12CCCC2	-21	2546	6	2	1	0	0.4
O=C(CCCN1C(=O)/C(=C\c2cccs2)SC1=S)Nc1cc([N+](=O)[O-])ccc1O	3	4293	13	5	10	0	19
O=C(CC1C(=O)NCCN1C(=O)Nc1ccccc1)Nc1cccc(Cl)c1 (configuration not stated)	-16	3464	-8	-6	2	1	0.4
CCCCC(=O)Nc1nc2c(OC)ccc(OC)c2s1	-9	7368	3	8	-11	-2	-1.4
CNC(=S)NNc1nncc2ccccc12	-19	3987	16	3	5	-4	5.4
Cc1noc(C)c1COC(=O)CNC(=O)c1cccc(F)c1	-3	4293	5	10	0	2	0.5
CC(C)(C)CN1CCNC(=O)C1CC(=O)NCCc1cnn(-c2ccccc2)c1 (configuration not stated)	-40	3785	-3	1	4	-7	5.4
O=C(NC(=S)Nn1cnc2c(cnn2-c2ccccc2)c1=O)c1ccc(Cl)cc1	-16	2112	4	8	27	-3	12
CC(C)c1ccccc1-n1c(-c2cccnc2)n[nH]c1=S	-11	4168	-2	2	4	-15	9.9
COCCSc1nnc(NC(=O)c2ccc([N+](=O)[O-])cc2)s1	-19	4384	.	.	.	8	.
Cc1ccc(C(C(=O)NCc2ccccc2)N(C(=O)c2csnn2)c2cccc3ccccc23)o1 (configuration not stated)	-26	3923	0	1	-21	-18	6.7
Cc1ccc(/C=C/C(=O)OCC(=O)NC(=O)NCc2ccco2)cc1	-10	3409	9	8	0	.	5.5
O=C(COc1ccc2ccc(=O)oc2c1)Nc1ccc(CCO)cc1	-19	5987	0	10	1	5	0.8
CCc1ccc(NC(=O)CCC(=O)Nc2nnc(C(F)(F)F)s2)cc1	-30	5289	0	6	1	0	5.6
Cc1nc(N2CCN(Cc3ccc4c(c3)OCO4)CC2)c2oc3ccccc3c2n1	-10	3884	15	1	19	.	9.9
C=CCn1c(SCC(=O)Nc2cc(C)on2)nc2sc(CC)cc2c1=O	-13	4795	.	.	-2	-2	4.9
O=C(NN=Cc1cccc(Br)c1)C1CC(=O)N(c2ccccc2)C1 (configuration not stated)	.	.	15	9	-3	.	6.4
C=C(Cl)COc1cc(C)cc2oc(=O)cc(CC)c12	-1	4801	.	.	3	7	8.5
O=C(C[n+]1cccc2ccccc21)c1ccc(Br)cc1	-54	8510	9	7	-1	6	-1.0
Cc1ccc(CSc2nc3ccccc3c(=O)[nH]2)cc1	-29	3588	6	5	26	-1	5.9
Next records follow:
SMILES	PrP 5UTR inh	Autofluor counter	Mtb hypoxia inh	Mtb hypoxia inh growth	Sa ugtP lethal	BJeLR viability	Sa RN4220 lethal
O=C(NCc1ccncc1)C1CCN(S(=O)(=O)Cc2ccccc2)CC1	-7	8094	-7	9	-9	0	-0.4
COc1ccc(CCC(=O)Nc2ccc(S(=O)(=O)Nc3nccc(C)n3)cc2)cc1	-25	3744	7	13	9	1	4.5
Cc1ccc(-c2noc(CCC(=O)NCc3ccccc3CN3CCOCC3)n2)cc1	-10	3711	5	11	5	.	5.6
CN(CC(=O)Nc1ccccc1C(F)(F)F)C(=O)Cc1ccc(S(=O)(=O)N2CCOCC2)s1	-21	5531	-8	3	1	7	0.1
O=c1[nH]c2c(n(C3CCCCC3)c1=O)CCC2	-29	4551	1	5	-1	-1	-0.7
O=C(O)C=CC(=O)c1ccc2c(c1)CCc1ccccc1-2	.	.	9	0	15	.	14
CSC1=NCCN1C(=O)c1ccc(S(=O)(=O)N2CCCCC2)cc1	-6	6014	.	.	11	-2	-0.2
Cc1ccc(S(=O)(=O)N2CCOCC2)cc1NC(=O)COC(=O)CCc1c[nH]c2ccccc12	-13	3041	9	4	14	.	8.8
CC(=O)Nc1ccc2c(COC(=O)[C@H](C)N3C(=O)C4CCCCC4C3=O)cc(=O)oc2c1 (some centres not stated)	-18	3417	-6	-9	-8	-7	1.3
Cn1ccnc1Sc1ccc(C=NNC(=O)c2ccccc2[N+](=O)[O-])cc1[N+](=O)[O-]	.	.	9	3	-12	.	4.6
Cc1cccc(NC(=O)C(=O)NCCCc2ccccc2)c1	.	.	-2	3	5	9	-0.7
COc1ccc2nc(Nc3nc4cc5c(cc4s3)OCCO5)sc2c1	-31	2465	.	.	26	-10	-3.3
COc1ccc(OC)c(-c2csc(N(Cc3ccco3)C(=O)c3ccco3)n2)c1	-27	4883	-4	-1	1	0	7.3
O=C(Nc1ccc(Cl)c(S(=O)(=O)N2CCCCC2)c1)c1ccco1	-25	.	11	-1	-5	.	2.0
CC(C)n1c(-c2cccs2)nc2ccccc21	-11	2331	.	.	13	-1	8.6
COC(=O)c1[nH]c2cc(OC)ccc2c1NC(=O)CCN1CCCCC1	-16	2748	.	.	4	1	-2.9
COC(=O)c1sc2ncn(N)c(=O)c2c1C	.	.	4	7	5	-10	2.1
CC(C)(C)SCCNS(=O)(=O)c1ccc2ccccc2c1	-8	23401*	2	1	1	-4	1.7
O=C(NCCc1c[nH]c2ccccc12)C(=O)NCC1OCCN1S(=O)(=O)c1ccc(F)cc1 (configuration not stated)	-21	5407	2	1	-2	3	0.9
CCCc1n[nH]c2c1C(=O)C(C(=O)OC)C(C)(C)C2 (configuration not stated)	-1	4340	.	.	0	1	2.5
Cc1ccc(-c2cc(-c3ccccc3)nc(NN)n2)cc1	-33	3444	-1	7	-2	-5	10
COc1cccc(-c2cc(C(=O)Nc3cc(C)on3)no2)c1	-21	22051*	-2	8	-10	-5	0.2
COC(=O)c1ccc(-n2c(C)cc(C(=O)COC(=O)CNS(=O)(=O)c3ccc(C)cc3)c2C)cc1	-15	2582	5	-1	3	-5	9.4
N#Cc1nccnc1S(=O)(=O)c1cccs1	.	.	9	4	26	-2	11
Cn1ccnc1COc1ccc(C=NO)cc1	.	.	1	13	5	.	4.8

Sorted by formula weight (highest first): some entries from above.
SMILES	PrP 5UTR inh	Autofluor counter	Mtb hypoxia inh	Mtb hypoxia inh growth	Sa ugtP lethal	BJeLR viability	Sa RN4220 lethal
COc1ccc(CCC(=O)Nc2ccc(S(=O)(=O)Nc3nccc(C)n3)cc2)cc1	-25	3744	7	13	9	1	4.5
COc1cccc(-c2cc(C(=O)Nc3cc(C)on3)no2)c1	-21	22051*	-2	8	-10	-5	0.2
Cc1cccc(NC(=O)C(=O)NCCCc2ccccc2)c1	.	.	-2	3	5	9	-0.7
O=C(O)C=CC(=O)c1ccc2c(c1)CCc1ccccc1-2	.	.	9	0	15	.	14
Cc1ccc(-c2cc(-c3ccccc3)nc(NN)n2)cc1	-33	3444	-1	7	-2	-5	10
COC(=O)c1sc2ncn(N)c(=O)c2c1C	.	.	4	7	5	-10	2.1

Following part:
SMILES	PrP 5UTR inh	Autofluor counter	Mtb hypoxia inh	Mtb hypoxia inh growth	Sa ugtP lethal	BJeLR viability	Sa RN4220 lethal
CC(=NNC(=O)c1nnn(-c2nonc2N)c1CSc1ccc(Cl)cc1)c1cccnc1	.	.	7	4	-7	.	16
COc1ccc(C(=O)Oc2coc(CSc3nnc(NC(=O)c4cccs4)s3)cc2=O)cc1	-6	2075	7	5	3	-13	2.4
COC(=O)C1=C(c2c(C)noc2C)CC2CCC1N2C(=O)NC(C)C (configuration not stated)	.	.	-1	14	-11	.	1.6
CC12CCC(CC1=N/N=C1/NC(=O)/C(=C\c3ccc(Cl)cc3)S1)C2(C)C (configuration not stated)	.	.	6	2	68	.	65
COCCCN1CC(=O)N2C(c3ccccc3)c3[nH]c4ccccc4c3C[C@H]2C1=O (some centres not stated)	-13	3499	8	-2	5	3	0.9
O=C(COc1ccc(Cl)cc1)NCc1nnc(SCC(=O)NC2CCCCC2)o1	-16	4866	.	.	1	11	-8.7
CC(C)=CCCC1=CCC(C=NNC(N)=O)C(C)C1 (configuration not stated)	.	.	0	2	93*	.	1.4
Cc1cc(C(=O)OCC(=O)Nc2ccc(F)c(F)c2F)c(C)o1	-21	4716	7	0	-4	3	2.5
Cc1nn(-c2ccccc2)c(C)c1NC(=O)COC(=O)c1ccccc1OC(F)F	-11	4113	11	3	0	7	-0.5
Cc1cc(C)nc(N2CCCC(C(=O)NCc3cccc(C(F)(F)F)c3)C2)n1 (configuration not stated)	-15	8636	15	10	2	-7	2.6
COc1ccc(C(=O)N/N=C(/C)c2cccc(NC(=O)c3ccncc3)c2)cc1OC	-11	5095	.	.	.	-3	.
Cn1nc(C(=O)Nc2cccnc2)c2ccccc2c1=O	-2	8835	8	6	8	-8	4.8
